RN4220 kill: growth inhibition of S. aureus RN4220, primary screen, OD600 | 16 h | inhibition, % (no concentration beside the values) | 0.33% of 330,000 active;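 active means z-score of -3 or lower and OD600 up to 0.18 on both plates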;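 further: plate controls were untreated cells for no effect and reference antibiotic for full effect; stock transfer was 100 nL into about 80 µL; one replicate is shown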
BJeLR viability: MLPCN primary cell-based screen for lethality selective to Ras in HRASV12 cells; BJeLR (HRASV12) viability, CellTiter-Glo ATP luminescence, 48 h; reference of the scale not given here; inhibition, % (no concentration beside the values); 0.17% of 300,000 active; AID 1554, 2009;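 active means replicate mean above 50%; inconclusive means above 50% but judged a plate artefact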;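 further: 50 nL library stock added to about 25 µL; numbers are from one replicate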
ugtP null kill: growth inhibition of ugtP-null S. aureus, primary screen, RN4220 ugtP deletion, OD600; 0.54% of 330,000 active; growth inhibition, % (test concentration not listed); 16 h; some inactives read as strong as hits;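 active means z-score under -3 and OD600 up to 0.15 on both plates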;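 further: plate controls were untreated wells for no effect and antibiotic for full effect; wells of about 80 µL received 100 nL stock; the first replicate is given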
Bead autofluor: compound fluorescence in toxin protease inhibitor counterscreen; compound autofluorescence counterscreen, microsphere flow cytometry; stronger effect = higher value; fluorescence intensity (no concentration beside the values); 3.1% of 360,000 active; AID 624483;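 active means at least 3 SD above the mean of all compounds, about 16000 in these data; inconclusive means too few beads counted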;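 further: 100 nL of 1 mM stock went into each well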
PrP 5UTR inh: inhibition of PrP 5' UTR reporter expression. inhibition, % (concentration not given with the values). AID 488862, 2010. 0.35% of 340,000 active. cell-based PrP 5' UTR mRNA reporter, plate reader;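 active means every replicate at 50% or more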;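 further: 0 = median of the neutral control wells; tested in H4 reporter cells; numbers are from one replicate; inactives centre near -14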
Mtb hypoxia rep: PubChem AID 1159583; M. tuberculosis hypoxia-regulated fluorescent reporter, fluorescence; fluorescence inhibition, % (concentration not given with the values); 0.1% of 300,000 active;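 active means 35 to 45% if threefold the growth effect, above 45% if 1.5-fold the growth effect; inactive means the rest, general growth blockers included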;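 further: wells of about 50 µL received 100 nL stock; 0% = vehicle wells and 100% = reference inhibitor wells; whole bacteria with a GFP reporter of the hypoxia response; strong numbers were not always called active; many hits fall short of the cut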
Mtb hypoxia rep growth: recorded beside Mtb hypoxia rep, whose call it bears; growth inhibition, %; measured here: M. tuberculosis growth (absorbance);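 0% = vehicle and 100% = reference antibiotic; read after six days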
Active calls of the source: *; ? = inconclusive; . = not tested or not shown.

A first look, 12 compounds:
(1) Cc1ccccc1OCC(=O)NC(=S)Nc1ccccc1N1CCN(S(C)(=O)=O)CC1
(2) O=C(NN=Cc1ccc(Cl)cc1Cl)c1ccc(-n2cnnn2)cc1
(3) Cc1c(OCc2ccc([N+](=O)[O-])cc2)ccc2c3c(c(=O)oc12)CCC3
(4) CCOc1ccc(/C=N/NC(=O)c2c(-c3ccccc3)noc2C)cc1
(5) O=C(Oc1ccc(Oc2ccccc2)cc1)N1CCC(O)CC1
(6) O=C(CCS(=O)(=O)c1ccccc1)Nc1ccc(-c2nc3ccccc3s2)cc1
(7) CCCCCNCc1ccc(Br)cc1
(8) Cc1ccccc1CN1C[C@@H]2C[C@@H](c3cn[nH]c3-c3ccc(F)cc3)N3CCC[C@@]23C1=O
(9) Cc1cc(NC(=O)c2ccc(F)cc2)n(CCOC(=O)c2ccc(F)cc2)n1
(10) Cc1onc(-c2c(F)cccc2Cl)c1C(=O)N=C(N)N1CC(C)OC(C)C1 (configuration not stated)
(11) C[C@H](N)c1nnc(SCC(=O)c2ccc(Cl)cc2)o1
(12) NC(=O)N/N=C/c1cc(Br)ccc1OC(=O)c1ccccc1

compound no.,1,2,3,4,5,6,7,8,9,10,11,12
RN4220 kill,-9.7,6.5,3.1,.,4.3,3.6,6.2,.,0.5,3.8,5.2,.
BJeLR viability,1,.,-4,-6,3,.,9,-5,9,1,-3,-5
ugtP null kill,0,2,0,.,6,0,12,.,-5,0,9,.
Bead autofluor,5570,.,8643,2060,4074,2233,7263,2687,2014,?,16731*,2508
PrP 5UTR inh,4,.,-155,-24,-46,-20,-26,23,-25,-5,-15,-19
Mtb hypoxia rep,5,11,3,.,4,5,16,.,-2,7,7,.
Mtb hypoxia rep growth,2,-3,6,.,6,-10,5,.,5,-4,6,.

Results, repeating the preview:
(1) Cc1ccccc1OCC(=O)NC(=S)Nc1ccccc1N1CCN(S(C)(=O)=O)CC1
(2) O=C(NN=Cc1ccc(Cl)cc1Cl)c1ccc(-n2cnnn2)cc1
(3) Cc1c(OCc2ccc([N+](=O)[O-])cc2)ccc2c3c(c(=O)oc12)CCC3
(4) CCOc1ccc(/C=N/NC(=O)c2c(-c3ccccc3)noc2C)cc1
(5) O=C(Oc1ccc(Oc2ccccc2)cc1)N1CCC(O)CC1
(6) O=C(CCS(=O)(=O)c1ccccc1)Nc1ccc(-c2nc3ccccc3s2)cc1
(7) CCCCCNCc1ccc(Br)cc1
(8) Cc1ccccc1CN1C[C@@H]2C[C@@H](c3cn[nH]c3-c3ccc(F)cc3)N3CCC[C@@]23C1=O
(9) Cc1cc(NC(=O)c2ccc(F)cc2)n(CCOC(=O)c2ccc(F)cc2)n1
(10) Cc1onc(-c2c(F)cccc2Cl)c1C(=O)N=C(N)N1CC(C)OC(C)C1 (configuration not stated)

compound no.,1,2,3,4,5,6,7,8,9,10
RN4220 kill,-9.7,6.5,3.1,.,4.3,3.6,6.2,.,0.5,3.8
BJeLR viability,1,.,-4,-6,3,.,9,-5,9,1
ugtP null kill,0,2,0,.,6,0,12,.,-5,0
Bead autofluor,5570,.,8643,2060,4074,2233,7263,2687,2014,?
PrP 5UTR inh,4,.,-155,-24,-46,-20,-26,23,-25,-5
Mtb hypoxia rep,5,11,3,.,4,5,16,.,-2,7
Mtb hypoxia rep growth,2,-3,6,.,6,-10,5,.,5,-4

(11) C[C@H](N)c1nnc(SCC(=O)c2ccc(Cl)cc2)o1
(12) NC(=O)N/N=C/c1cc(Br)ccc1OC(=O)c1ccccc1
(13) COc1ccc(S(=O)(=O)CCC(=O)N2CCN(c3ccccc3F)CC2)cc1
(14) COc1ccc(CCC(=O)Nc2ccc(-c3noc(-c4ccc(OC)c(OC)c4)n3)cc2)cc1
(15) CCc1ccc(OC(C)c2nnc(SCC(=O)Nc3ncccc3C)n2C)cc1 (configuration not stated)
(16) Cc1nn(Cc2ccccc2)c(C)c1NC(=O)c1cc2nc(-c3ccco3)cc(C(F)(F)F)n2n1
(17) O=C(Cn1nnc(-c2cccc(C(F)(F)F)c2)n1)N1CCCCCC1
(18) Cc1cc(=O)[nH]c2ccc(S(=O)(=O)Nc3ccccc3)cc12
(19) CC(C)C(=O)Nc1ccc(C(=O)N/N=C/c2cc(Br)cc(Br)c2O)cc1
(20) FC(F)Oc1ccc(NC(=S)NCc2cccnc2)cc1

compound no.,11,12,13,14,15,16,17,18,19,20
RN4220 kill,5.2,.,0.1,1.8,3.3,13,-0.7,3.3,.,5.6
BJeLR viability,-3,-5,0,-1,-7,-7,7,16,-11,-2
ugtP null kill,9,.,7,-9,1,10,11,5,.,3
Bead autofluor,16731*,2508,2549,3530,2023,.,4211,2957,2389,3411
PrP 5UTR inh,-15,-19,-21,-81,18,-3,-26,0,-3,-19
Mtb hypoxia rep,7,.,-8,10,0,-10,.,-1,.,14
Mtb hypoxia rep growth,6,.,12,-2,6,19,.,2,.,0

(21) O=C(NCc1ccc2c(c1)OCO2)Nc1cccc(Cl)c1
(22) CCN1CCN(c2nc(-c3ccccc3)c3ccccc3n2)CC1
(23) Cc1cc(C(=O)COC(=O)c2csc3c2CCCC3)c(C)n1C
(24) CC(C)NC(=O)CSc1nnc(C2CC2)n1-c1ccccc1
(25) COc1ccc(C(C(=O)NC2CCCCC2)N(C(=O)c2sc(C)nc2C)c2ccccc2)cc1 (configuration not stated)
(26) O=C(CCNC(=O)c1ccccc1Cl)NCC(c1ccc(F)cc1)N1CCOCC1 (configuration not stated)
(27) CCC1=C2CCC3C(=O)N(C)C(=O)C3C2[C@@]2(Cc3ccccc3)C(=NCC(=O)OC)OC(=O)N2C1=O (some centres not stated)
(28) Cc1ccc(-c2cc(C(F)F)nc(NCc3cccs3)n2)cc1
(29) CC(C)C(=O)Nc1ccc(NC(=S)NC(=O)c2ccccc2F)cc1
(30) O=S(=O)(NCC(Nc1ccccc1)c1ccccc1)c1ccc(Cl)cc1 (configuration not stated)

compound no.,21,22,23,24,25,26,27,28,29,30
RN4220 kill,-3.2,1.7,0.5,0.2,6.6,2.3,3.9,2.6,-1.7,3.3
BJeLR viability,-3,5,3,-5,-6,3,.,2,0,10
ugtP null kill,-9,43,9,-3,0,3,2,4,3,-2
Bead autofluor,3871,3599,3824,2415,2785,?,.,8552,5600,10786
PrP 5UTR inh,-34,-6,-37,6,-18,-7,.,-28,8,-9
Mtb hypoxia rep,7,-1,9,.,6,1,21,6,15,8
Mtb hypoxia rep growth,5,-1,-3,.,8,2,5,-2,29,-11

(31) Cc1ccc2c(n1)CC(C)(C)CC2=O
(32) CC(=NN=C(N)N)c1ccc(Cl)cc1
(33) O=C(NCc1ccccc1)C1=C[C@@H](C2CCCCC2)C[C@@H](OCCCCO)O1
(34) N#Cc1cccc(C(c2nnnn2CCc2ccccc2)N2CCN(C3CCCCC3)CC2)c1 (configuration not stated)
(35) O=C(CSC1=N/C(=C/c2ccco2)C(=O)N1c1ccc(OC(F)F)cc1)NC1CCS(=O)(=O)C1 (configuration not stated)
(36) Cc1sc2nc(C(C)C)nc(SCC(=O)N3c4ccccc4CC3C)c2c1C (configuration not stated)
(37) COc1ccc(N2CCN(C(=O)c3ccc(-c4nc5ccccc5s4)o3)CC2)cc1
(38) COc1ccccc1C1(O)CC2CCC(C1)N2S(=O)(=O)c1ccc(C(C)=O)cc1 (configuration not stated)
(39) C[C@H](CO)N1C[C@H](C)[C@@H](CN(C)S(=O)(=O)c2ccccc2)Oc2c(NC(=O)C3CCCCC3)cccc2C1=O
(40) CCOc1ccccc1CN1CCN(S(=O)(=O)CC)CC1

compound no.,31,32,33,34,35,36,37,38,39,40
RN4220 kill,6.0,6.2,.,0.1,3.2,-6.1,4.2,0.9,-7.3,3.4
BJeLR viability,-3,.,-8,7,-2,6,.,4,.,-3
ugtP null kill,-3,-7,.,-1,7,25,7,6,-3,-4
Bead autofluor,4014,.,3409,11411,4472,2379,7995,7152,2874,5895
PrP 5UTR inh,20,.,-17,-13,-10,-15,-33,-5,-10,-7
Mtb hypoxia rep,17,9,.,6,-1,8,1,5,5,3
Mtb hypoxia rep growth,16,12,.,9,-2,5,5,-8,9,2

(41) c1ccc(-c2csc(Nc3cccnc3)n2)cc1
(42) CC1(CCc2ccccc2)NC(=O)N(Cc2cc([N+](=O)[O-])cc3c2OCOC3)C1=O (configuration not stated)
(43) COC(=O)c1ccc(C(=O)N(Cc2ccccc2)c2ccccc2)cc1
(44) O=[N+]([O-])c1ccc(-c2nnc3n2CCCCC3)cc1
(45) COc1cc(/C=N/Nc2ccc(C(=O)O)cc2)ccc1O
(46) N#CC1=C(N)Oc2c(c(=O)oc3ccccc23)C1c1ccc([N+](=O)[O-])o1 (configuration not stated)
(47) CCOC(=O)N1CCN(c2nc3ccccn3c(=O)c2C=O)CC1
(48) CCC(c1nnnn1C1CCCC1)N(Cc1cccs1)Cc1cc2cccc(C)c2[nH]c1=O (configuration not stated)
(49) CCOc1cc(/C=C2/C(=O)N(c3ccccc3)N=C2C)ccc1OC(=O)c1cccs1
(50) CCOC(=O)C1(CCCc2ccccc2)CCN(C2CCCC2)CC1

compound no.,41,42,43,44,45,46,47,48,49,50
RN4220 kill,-2.4,0.6,3.2,2.2,.,2.8,-2.8,-1.2,2.0,6.1
BJeLR viability,-7,0,11,5,4,4,6,.,-14,1
ugtP null kill,1,7,18,3,.,8,-2,-25,-1,2
Bead autofluor,3268,9602,4533,4042,2596,4152,2968,2577,7727,3544
PrP 5UTR inh,-44,-28,-8,-17,-21,-5,-22,-7,-43,-10
Mtb hypoxia rep,6,16,-4,-1,.,-4,21,.,-9,-5
Mtb hypoxia rep growth,1,9,-8,2,.,3,13,.,4,-7

(51) COc1cc2c(cc1OC)CN(C(=O)c1ccc3nc[nH]c3c1)CC2
(52) CC(C)=CCC/C(C)=C/Cc1c(O)ccc(C(=O)/C=C/c2ccc(O)cc2)c1O
(53) NC(=O)c1cc(NC(=O)c2cc(Br)c(Br)s2)cc(C(N)=O)c1
(54) O=C(Nc1ccc(N2CCN(Cc3ccccc3F)CC2)cc1)c1ccc([N+](=O)[O-])o1
(55) CCCCCCSc1nc(O)c(C2OC(=O)c3c2ccc(OC)c3OC)c(=O)n1CC (configuration not stated)
(56) O=C1NC(=O)C(=Cc2ccc(OCCOc3ccc([N+](=O)[O-])cc3)cc2)C(=O)N1
(57) CCOC(=O)c1cncc(NC(=O)c2ccccc2)c1
(58) COc1ccc(CNC2c3ccccc3-c3ccccc32)cc1OC
(59) O=C(CCCn1c(SCC(=O)c2ccc(Cl)cc2)nc2ccccc2c1=O)NCc1ccco1
(60) Cc1ccc(OCCCC(=O)N(C)CC(=O)Nc2ccccc2Br)cc1
(61) CCOc1cccc(C2CC(=O)Nc3cc(OC)c(OC)cc32)c1 (configuration not stated)
(62) CC1CCc2[nH]c3ccc(C(=O)N(C)CC(=O)Nc4ccccc4C(F)(F)F)cc3c2C1 (configuration not stated)
(63) NS(=O)(=O)c1cc(C2(O)NC(=O)c3ccccc32)ccc1Cl (configuration not stated)

compound no.,51,52,53,54,55,56,57,58,59,60,61,62,63
RN4220 kill,2.9,.,-1.9,3.3,15,4.6,4.8,3.2,3.1,6.0,.,-4.8,1.9
BJeLR viability,16,-8,-2,5,-2,-2,4,-1,1,-2,4,8,6
ugtP null kill,-4,.,3,5,1,0,1,8,-4,1,.,-1,-3
Bead autofluor,2033,3702,3289,4747,2433,2824,2763,6031,.,5673,3841,6538,5855
PrP 5UTR inh,-17,-4,-25,14,-21,-10,1,5,-5,0,-10,-11,5
Mtb hypoxia rep,6,.,11,.,-1,3,.,-2,3,-1,.,8,-3
Mtb hypoxia rep growth,9,.,3,.,9,2,.,-1,-6,9,.,-6,-2
